# Source: PubChem (ICCB-Longwood Screening Facility, Harvard Medical School)
# BasE inh – inhibitors of Acinetobacter baumannii siderophore enzyme BasE | purified BasE, fluorescence polarization binding displacement | inhibition, % (no concentration beside the values) | 84,000 compounds, 0.1% hits;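 active means both replicates above 25% with normal brightness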;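 further: 0% = negative plate control signal and 100% = positive plate control signal; stock transfer was 100 nL into about 30 µL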
# KSHV LANA nucl – LANA-nucleosome interaction inhibition; FITC-LANA1-23 / chicken nucleosome fluorescence polarization; hits give low values; z-score (no concentration beside the values); 51,000 compounds, 0.3% hits;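 active means both repeat wells score below -2 in polarization z-score versus plate sample wells, excluding overly bright wells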;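 further: 100 nL library stock added to about 30 µL; numbers are from one replicate; some results filed as inactive read as strong as hits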
#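 System – purified chicken nucleosomes with FITC-labelled LANA N-terminal peptide (1-23) · Amount – 240 nM purified chicken nucleosomes (480 nM peptide binding sites), final · Also added – 50 nM FITC-LANA1-23 probe · Medium – TEN-BT buffer, pH 7.5 · Incubation – compound with peptide–nucleosome mix 10–45 min at room temperature · Detection – fluorescence polarization, ex 480 nm, em 535 nm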
# The depositor's hits bear a star; . = not tested or not shown; & = joins results of further samples. Only part of the results is shown; count on the stated rates, not on these rows.
SMILES,BasE inh,KSHV LANA nucl
CNS(=O)(=O)c1cccc(C(=O)OCC(=O)N2c3ccccc3NC(=O)C2(C)C)c1,1.4,.
Cc1ccc(-c2nnc(N3CCNC(=O)C3)c3ccccc23)cc1,0.3,.
O=C(CSc1ncn[nH]1)N1CCCCC1,-0.6,-1.4
O=c1ccc(-c2ccc3c(c2)OCO3)nn1Cc1ccc(F)cc1,1.5,-0.61
COc1cc2c(cc1OC)C(=O)N(Cc1ccc(C)cc1)CC2,.,0.0085
CCc1cc(SCc2nnc(-c3ccccc3)o2)n2c(nc3ccccc32)c1C#N,-3.1,.
CC(NC(=O)Cc1ccccc1)c1nc2ccccc2[nH]1 (stereo not given),-3.2,.
CCOC(=O)c1c(C)noc1/C(C)=N\OC(=O)c1ccccc1,-1.4,-1.3
CN(C)c1ccc(NC(=O)Nc2ccc(C(C)(C)C)cc2)cc1,.,-1.4
COc1ccc(C(=O)COC(=O)c2c3c(nc4ccccc24)CCN(C)C3)cc1,-8.1,.
C1CC(CCN2CCOCC2)CCN1,1.4,-0.43
COc1cccc(NC(=O)c2sc3[nH]c(=O)c(C(=O)O)cc3c2N)c1,7.4,0.18
COc1ccc(-n2nc(C(=O)O)cc2-c2ccccc2)cc1,1.8,-0.21
Cc1csc(SCC(=O)NC(=O)NCc2ccco2)n1,1.2,.
Oc1ccc(N=c2cc(-c3ccccc3)oc3ccc(Cl)cc23)cc1,2.3,.
CC(NC(=O)NC(C)(C)C)c1ccccc1 (stereo not given),2.9,-0.18
COC(=O)c1nc(NC(=O)c2ccccc2)n[nH]1,0.5,.
O=C(Cn1nc(C(=O)O)c2ccccc2c1=O)NC12CC3CC(CC(C3)C1)C2,-0.4,.
Cc1c(-n2cc(C(=O)O)c(=O)c3c(F)c(F)c(F)c(F)c32)c(=O)n(-c2ccccc2)n1C,1.0,.
O=c1c(-c2nn[nH]n2)coc2ccccc12,2.5,.
COc1cccc(-c2noc(Nc3ccccc3)n2)c1,-9.9,-0.44
CS(=O)(=O)c1cccc(C(=O)O)c1,-0.9,.
CCOc1ccc(S(=O)(=O)N(C)c2ccc(OCC(=O)OCc3c(C)noc3C)cc2)cc1,2.1,.
Nc1nonc1-c1nc2ccccc2n1CCn1c(-c2nonc2N)nc2ccccc21,-1.8,-0.58
C#CC1(C)CCCC(C)(C)O1 (stereo not given),1.2,0.42
CC(N=C1NS(=O)(=O)c2ccccc21)C(=O)OC(C)C(=O)Nc1ccc2c(c1)OCO2 (stereo not given),-0.5,.
N#C/C(=C(/O)CN1CCN(S(=O)(=O)c2ccccc2C#N)CC1)c1nc2ccccc2[nH]1,-1.6,.
N#CCCOc1ccccc1,2.6,.
N/C(CSc1nc2ccccc2s1)=N\O,2.0,.
CCc1cc2c(=O)c(-c3nc4ccccc4[nH]3)c(CCC(=O)O)oc2cc1O,4.1,.
CCOC(=O)C1=C(CSCc2ccccc2)NC(=O)NC1CC (stereo not given),1.2,.
O=CN1CCN(C(=O)CSc2ncnc3sccc23)CC1,0.8,.
COc1cc(O)cc(OC)c1,-2.5,.
N#Cc1ccc(-n2ccnc2)cc1,.,0.025
CCN1CCN(C(=O)C(C)Sc2nc3nn(-c4ccccc4)c(=O)c-3c3n2CCCCC3)CC1 (stereo not given),2.6,.
O=C(Nc1ccccc1)c1cccnc1Cl,.,0.68
COCCCN=C1NS(=O)(=O)c2ccccc21,1.0,0.22
NC(=O)C1CCN(C(c2ccccc2)c2nnnn2Cc2ccccc2)CC1 (stereo not given),0.8,-0.053
O=C(O)c1cc(F)cc(C(F)(F)F)c1,0.5,.
CC(C)(C)n1nc(-c2ccc(F)cc2)c2c(N)ncnc21,.,-0.24
O=C(CN1C(=O)CSc2ccccc21)N/N=C/c1cccnc1,-1.1,-0.42
Cc1nn(Cc2cccc(C(=O)NC(=O)Nc3ccc(Cl)cc3)c2)c(C)c1Br,2.0,.
c1ccc(C2=Nn3c(nnc3C3COc4ccccc4O3)SC2)cc1 (stereo not given),10,0.12
O=C(CSc1ccc(-c2cccs2)nn1)c1cccs1,2.2,-0.45
CCOC(=O)CSc1nnc(-c2ccccc2NC(=O)c2ccccc2)o1,0.6,-0.66
CC[n+]1c(C)csc1Nc1ccc(N2CC(C)OC(C)C2)cc1 (stereo not given),0.8,.
COC(=O)C1CCN(C(=O)Cc2ccc(C)cc2)CC1,2.1,.
O=C(O)Cc1ccc2c(c1)CCCC2,-0.4,0.13
CS(=O)(=O)c1ccc(Cl)c(C(=O)OCc2nc3ccccc3s2)c1,-2.5,.
Cc1ccc(S(=O)(=O)/N=C(/CN2CCOCC2)N2CCN(S(=O)(=O)c3ccc(C)cc3)C2C)cc1 (stereo not given),2.3,0.065
COc1ccc(CNC(=O)C(NS(=O)(=O)c2ccc3c(c2)oc(=O)n3C)C(C)C)cc1 (stereo not given),2.4,-1.1
O=C(CSc1nnc(C2CC2)n1Cc1ccccc1)c1cc2ccccc2o1,-6.3,.
O=C(Nc1ccc(CN2CCCCC2)cc1)c1cccnc1Cl,-1.1,0.66
O=C(Cc1csc(-c2ccccc2)n1)N(Cc1ccco1)Cc1cccs1,-1.3,.
COc1ccc(NC(=O)c2cccc(Br)c2)cn1,-0.8,.
CS(=O)(=O)Nc1ccc2c(c1)COC2=O,1.6,0.064
O=C(CN1C(=O)c2ccccc2C1=O)c1ccc(O)cc1O,3.9,.
COc1cc(-c2cc(OC)c(C)cc2OC)c(OC)cc1C,2.8,.
CN(C)C(CN)c1ccccc1 (stereo not given),1.4,.
CCS(=O)(=O)c1cccc(C(=O)Nc2nc3c(s2)C(=O)CC(C)(C)C3)c1,0.1,0.2
# (further entries)
SMILES,BasE inh,KSHV LANA nucl
COc1ccc(C=C2C(=O)OC(c3ccccc3)OC2=O)c(OC)c1OC (stereo not given),1.5,.
Cc1ccc(CC(=O)Nc2ccc(S(=O)(=O)NCc3ccco3)cc2)cc1C,-0.2,.
CC(=O)O/N=C(\N)Cc1csc2ccc(Cl)cc12,-0.2,-0.42
C/C(=N\O)C(=O)C(CN1CCCCC1)CN1CCCCC1,-1.2,-0.013
C=CCN1C(=O)/C(=c2\sc3nc(-c4ccccc4)nn3c2=O)c2ccccc21,-0.5,.
CCCCn1c(O)c(N=NC(=O)CNc2ccc(OC)cc2)c2ccccc21,1.8,.
Cc1ccc(-n2nnnc2-c2c[nH]c3cc(Cl)c(F)cc23)cc1,2.5,.
CN(C)C(=O)COC(=O)c1oc2ccccc2c1COc1ccccc1,-1.8,.
CN1Cc2ccccc2CC1C(=O)O (stereo not given),-0.9,0.96
Cc1ccc(/C=N/n2c(-c3ccc(Cl)cc3)csc2=NCC2CCCO2)o1 (stereo not given),2.3,.
CN1C(=O)/C(=C/C=C2/CCCN2C)N(C)C1=S,-28,0.44
CC(=O)NS(=O)(=O)c1ccc(NC(=O)C2CC(=O)N(c3ccc(F)cc3)C2)cc1 (stereo not given),1.2,-0.44
O=C(N1CCN(c2ccccc2)CC1)n1ccnc1,-0.5,.
O=C(c1sccc1Br)N1CCN(Cc2ccc3c(c2)OCO3)CC1,.,0.24
CCO/C=C1/C(=O)N(c2ccc(S(=O)(=O)N3CCOCC3)cc2)C(=O)c2ccccc21,0.7,.
Cc1ccc(N(O)C(=O)Nc2ccccc2)cc1,1.1,0.63
Cc1sc2nc3n(c(=O)c2c1C)NC(=O)CC3,0.6,-0.12
CC(NC(=O)c1cccs1)C(C)(C)C (stereo not given),-1.6,0.61
CN(C)/C=C/C=C1\CC/C(=C\C=C\N(C)C)C1=O,-44,2.3
Cc1ccccc1NC(=O)CC1COc2ccccc2O1 (stereo not given),0.3,-0.0075

# Exported as tab-separated lines: part of the list above
structure	BasE inh	KSHV LANA nucl
CCCCn1c(O)c(N=NC(=O)CNc2ccc(OC)cc2)c2ccccc21	1.8	.
Cc1ccc(-n2nnnc2-c2c[nH]c3cc(Cl)c(F)cc23)cc1	2.5	.
CN(C)C(=O)COC(=O)c1oc2ccccc2c1COc1ccccc1	-1.8	.
CN1Cc2ccccc2CC1C(=O)O (stereo not given)	-0.9	0.96
Cc1ccc(/C=N/n2c(-c3ccc(Cl)cc3)csc2=NCC2CCCO2)o1 (stereo not given)	2.3	.
CN1C(=O)/C(=C/C=C2/CCCN2C)N(C)C1=S	-28	0.44
CC(=O)NS(=O)(=O)c1ccc(NC(=O)C2CC(=O)N(c3ccc(F)cc3)C2)cc1 (stereo not given)	1.2	-0.44
O=C(N1CCN(c2ccccc2)CC1)n1ccnc1	-0.5	.
O=C(c1sccc1Br)N1CCN(Cc2ccc3c(c2)OCO3)CC1	.	0.24
CCO/C=C1/C(=O)N(c2ccc(S(=O)(=O)N3CCOCC3)cc2)C(=O)c2ccccc21	0.7	.
Cc1ccc(N(O)C(=O)Nc2ccccc2)cc1	1.1	0.63
Cc1sc2nc3n(c(=O)c2c1C)NC(=O)CC3	0.6	-0.12
CC(NC(=O)c1cccs1)C(C)(C)C (stereo not given)	-1.6	0.61
CN(C)/C=C/C=C1\CC/C(=C\C=C\N(C)C)C1=O	-44	2.3
Cc1ccccc1NC(=O)CC1COc2ccccc2O1 (stereo not given)	0.3	-0.0075

# (listing goes on)
SMILES,BasE inh,KSHV LANA nucl
COc1ccc(Cn2ccc3nc(C)c(C(=O)N4CCN(C)CC4)cc3c2=O)cc1,0.2,-0.62
CCCCn1c(Cc2ccccc2)nnc1SCC(=O)OCC,-1.6,-1
CCN1CCN(CCCNC(=O)Cc2ccc(NC(=O)N3CCCCc4ccccc43)cc2)CC1,2.1,0.12
Cc1nn(-c2ccccc2)c(C)c1/C=N/NC(=O)CCc1ccc(S(=O)(=O)N2CCOCC2)cc1,0.6,.
N#C/C(=C(/O)CSc1ccccc1C(=O)O)c1nc2ccccc2s1,1.6,.
O=C(Cn1[nH]c(=O)c2ccccc2c1=O)Nc1cccnc1,9.1,.
O=C(Cn1nnc2ccccc2c1=O)NCCOc1nnnn1-c1cccs1,2.0,-0.85
CCOc1cc(/C=C2/SC(=S)N(C)C2=O)cc(Br)c1O,3.9,-0.3
N#CCCC(=O)c1ccccc1,1.6,0.84
Cc1ccc2nc(-c3ccc(NC(=O)C(C)N4CCN(C(=O)c5ccco5)CC4)cc3)sc2c1 (stereo not given),-11,.
CCc1ccc(NC(=O)C2CCN(c3ncccn3)CC2)cc1,-1.4,-1
O=S(=O)(Nc1nc(SCc2ccc(Cl)cc2)n[nH]1)c1ccc(F)cc1,-0.7,.
CC(Sc1nc(N)cc(=O)[nH]1)C(=O)Nc1cccc(Cl)c1 (stereo not given),0.9,0.66
CCC1NC(=O)c2cc(S(N)(=O)=O)c(Cl)cc2N1 (stereo not given),-4.9,0.59
CCOc1ccc(Nc2oc(Cc3ccccc3)nc2C#N)cc1,0.8,-0.39
O=C1CSC(c2ccccc2)N1Cc1ccccc1 (stereo not given),-0.7,.
CCOC(=O)Cn1nc2sc3ccccc3n2c(=O)c1=O,2.0,0.15
O=C(NC1CCN(CC(=O)N2CCOCC2)CC1)C1CCCCC1,-1.2,0.35
O=C(NC(Cc1ccccc1)C(=O)NCc1ccco1)c1ccccc1 (stereo not given),-0.1,.
CCCNC(=O)c1ccc(COc2ccc(C)cc2)o1,4.5,0.56
CC(=O)Nc1c(O)c2ccccc2[nH]c1=O,2.5,-0.48
COC(=O)c1sc(SC)c(-c2ccon2)c1C,1.7,.
N#CC(C#N)C(c1ccccc1)c1c(O)[nH]c(=S)[nH]c1=O (stereo not given),2.8,.
Cc1ccccc1-c1nnc(CN2CCc3ccccc32)o1,0.7,-0.49
C=CCN(CC=C)C(=O)C[n+]1ccc(/C=N/O)cc1,-1.9,0.52
C=Cn1cccc1-c1ccc(OC)cc1,0.8,1.6
COc1cccc(CN2NS(=O)(=O)c3ccccc3C2=O)c1,-0.9,.
C=CCN1C(=O)/C(=C/c2cn(C(C)CC)c3ccccc23)C(=O)NC1=S (stereo not given),3.8,.
CC(=O)Oc1ccc(C(=O)COc2ccc(F)cc2)c(O)c1C,0.1,.
COc1ccc(Oc2ccc(/C(N)=C/C#N)cc2)cc1,.,-0.036
Cc1ccc(OCCN2CCN(c3ncnc4scc(-c5ccccc5)c34)CC2)cc1,1.6,.
O=C(CSC1=NNC(=O)C1C1CC1)Nc1cccc(Br)c1 (stereo not given),-3.0,.
Cc1cccc(Oc2coc3cc(OC(=O)c4cccnc4)ccc3c2=O)c1,0.3,.
Cc1ccccc1OCC(O)CN1C(=O)N(CN2C(=O)N(CC(O)COc3ccccc3C)C(=O)C2(C)C)C(C)(C)C1=O (stereo not given),0.6,0.071
Cc1cc(C(=O)NC2CCCC2)c2ccccc2n1,1.7,.
O=C(O)CCC(=O)Nc1ccc(S(=O)(=O)N2CCCC2)cc1,3.5,.
CCC1C(=O)NCCN1C(=O)c1ccc(-c2ccccc2)cc1 (stereo not given),2.5,-1.2
CC(C)(C)c1ccc(Cn2c(=N)n(CC(=O)O)c3ccccc32)cc1,2.2,.
CC(=O)NCc1ccc(C(=O)CSc2nnc(C3CC3)n2C2CC2)cc1,1.4,.
Cc1csc(N/N=C\CCc2ccccc2)n1,0.8,-0.25
O=C(Nc1cccc(F)c1)NC1(C(=O)NCc2ccco2)CCCCC1,1.4,-0.66
Cc1ccc(S(=O)(=O)N2CC3C=CC2C3)cc1 (stereo not given),1.3,.
COC(=O)CN1C(=O)S/C(=C/c2cc(C)n(C)c2C)C1=O,0.1,-0.83
O=C1C(=O)c2ccccc2C(O)=C1C1CCC(c2ccc(Cl)cc2)CC1 (stereo not given),0.8&0.2,0.22&-0.013&0.52&-0.63
Cc1c(NC(=O)O/N=C(/N)c2ccccc2)sc2nc(-c3ccc(Cl)cc3)nn12,-1.4,0.045
CCN1C(=O)c2ccc(C(=O)Nc3ccc(O)cc3C)cc2C1=O,7.0,0.032
